# ID4 binder: ID4 (human) binding. small molecule microarray, Flag-ID4 binding, fluorescence F/B. calls only. hit rate 1.2% among 31,000. AID 624137;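 active = spot signal over background at p below 0.07 in all four prints; compounds were printed on slides so no solution concentration is given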;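 note: a binder raises fluorescence above local background on the spot; about 2 pmol printed per array spot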
# Target sequence (P47928 whole entry, looked up): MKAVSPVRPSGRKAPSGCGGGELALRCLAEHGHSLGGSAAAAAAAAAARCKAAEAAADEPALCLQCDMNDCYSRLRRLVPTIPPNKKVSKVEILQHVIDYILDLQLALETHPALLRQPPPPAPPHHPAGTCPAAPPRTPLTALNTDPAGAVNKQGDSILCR
# Calls only; i = inactive. This is a subset; rates above refer to the full screens.
compound | ID4 binder
C[C@@H]1CN([C@H](C)CO)C(=O)c2cc(C#Cc3ccccc3)cnc2O[C@@H]1CN(C)C(=O)c1ccccc1 | i
Cc1ccc(-c2nn3c(C)nnc3c3ccccc23)cc1S(=O)(=O)NCC1CCCO1 (stereo not given) | i
N#C[C@@H]1[C@@H](c2ccccc2)[C@@H](CO)N1S(=O)(=O)c1ccc(F)cc1 | i
O=C(C[C@@H]1C=C[C@H](NC(=O)C2CCC2)[C@H](CO)O1)NC1CCC1 | i
CC(C)N(Cc1nc(-c2ccc(Cl)cc2)no1)S(=O)(=O)c1ccc2ccccc2c1 | i
O=C(Cn1nc(-c2cccc([N+](=O)[O-])c2)c2ccccc2c1=O)Nc1cccc(C(F)(F)F)c1 | i
Nc1nnc(SCC(=O)NC23CC4CC(CC(C4)C2)C3)s1 | i
CC(=O)Nc1ccc(NC(=O)CN(c2ccc(Cl)c(C(F)(F)F)c2)S(C)(=O)=O)cc1 | i
C[C@@H]1CN([C@@H](C)CO)C(=O)c2cc(N(C)C)ccc2O[C@@H]1CN(C)Cc1ccc(Cl)c(Cl)c1 | i
COc1ccc(NC(=O)CN2C(=O)COc3ccc(Cl)cc32)cc1 | i

# Continued.
compound | ID4 binder
C=CCSc1n[nH]c(-c2ccc(C(F)(F)F)cc2)n1 | i
COc1ccc(-c2cc(C(F)(F)F)n3nc(C(=O)N(C)Cc4cnn(C)c4C)cc3n2)cc1OC | i
CCCN(C)C[C@H]1Oc2ncc(-c3ccccc3)cc2C(=O)N([C@H](C)CO)C[C@H]1C | i
Cc1cc(=O)[nH]c(SCCCOc2ccc3c(c2)CCC3)n1 | i
C[C@H](CO)N1C[C@H](C)[C@@H](CN(C)S(=O)(=O)c2ccccc2F)Oc2cc(C#Cc3cccc(F)c3)ccc2S1(=O)=O | i
CCCC#Cc1cnc2c(c1)C(=O)N([C@@H](C)CO)C[C@@H](C)[C@@H](CN(C)C(=O)C1CCC1)O2 | i
C[C@@H]1CN([C@@H](C)CO)C(=O)c2cc(-c3ccccc3)cnc2O[C@H]1CN(C)Cc1cccnc1 | i
CC(=O)O[C@H]1CC[C@H](C)[C@@]2(C)[C@H](OC(C)=O)c3c(C)coc3C(=O)[C@H]12 | i
Cc1cc(NC(=O)c2nn3c(C(F)(F)F)cc(-c4ccccc4)nc3c2Cl)n(-c2ccccc2)n1 | i
CNC[C@@H]1Oc2cc(C#Cc3cccc(OC)c3)ccc2S(=O)(=O)N([C@@H](C)CO)C[C@@H]1C | i

# Additional compounds.
compound | ID4 binder
Cc1cccc(NC(=O)c2ccc(OCC(=O)Nc3ccc(Cl)c(Cl)c3)cc2)c1C | i
C[C@H]1CN([C@@H](C)CO)C(=O)c2cc(C#CCC3CCCC3)cnc2O[C@H]1CN(C)C(=O)CN(C)C | i
C[C@@H]1CN([C@H](C)CO)C(=O)c2cc(NC(=O)Cc3cn(C)c4ccccc34)ccc2O[C@@H]1CN(C)C | i
C[C@H](CO)N1C[C@H](C)[C@H](CN(C)Cc2cccc(F)c2)Oc2ncc(-c3ccccc3F)cc2C1=O | i
C[C@H](CO)N1C[C@H](C)[C@H](CN(C)CC2CC2)Oc2ncc(-c3ccc(C#N)cc3)cc2C1=O | i
CO[C@H](CN(C)C(=O)c1cnccn1)[C@H](C)CN([C@H](C)CO)S(=O)(=O)c1ccc(F)cc1 | i
Cc1c(Cl)cccc1NC(=O)CNC(=O)c1ccc([N+](=O)[O-])cc1 | i
O=C(CC(NC1CCCC1)C(=O)O)Nc1cccc(Cl)c1 (stereo not given) | i
COC(=O)c1ccc(NC(=O)C(C)NS(=O)(=O)c2ccc(Cl)cc2)cc1 (stereo not given) | i
O=C(NCc1c(OC(=O)c2cccc([N+](=O)[O-])c2)ccc2ccccc12)c1ccccc1 | i

# Next part:
compound | ID4 binder
O=C(C[C@H]1C=C[C@@H](NC(=O)c2cccnc2)[C@@H](CO)O1)NCCN1CCCCC1 | i
CN(CC(=O)Nc1ccccc1C(N)=O)S(=O)(=O)c1cc(Cl)ccc1Cl | i
O=C(CSc1nnnn1-c1ccccc1)Nc1ccc(Cl)cc1O | i
Cc1ccccc1CN(C)C[C@@H]1OCc2cnnn2CCCC(=O)N([C@H](C)CO)C[C@H]1C | i
CC(Sc1nc(N)cc(N)n1)C(=O)Nc1cccc(Cl)c1 (stereo not given) | i
Cc1ccc(NC(=O)Cn2nc(-c3ccc(C)c(S(=O)(=O)N(C)C)c3)c3ccccc3c2=O)cc1 | i
O=C(NCCN1CCOCC1)[C@@]1(CCS(=O)(=O)c2ccccc2)COC(c2ccc(OCCCO)cc2)=N1 | i
COc1ccc(NC(=O)CC(C(=O)O)N2CCOCC2)cc1 (stereo not given) | i
C[C@@H]1CN([C@@H](C)CO)C(=O)c2cccc(NC(=O)C3CCCCC3)c2O[C@H]1CN(C)CC1CC1 | i
Cc1ccc(N(CC(N)=O)S(=O)(=O)c2ccccc2)cc1 | i

# Reprinted from the part before: two entries, followed by the next part.
compound | ID4 binder
C[C@@H]1CN([C@@H](C)CO)C(=O)c2cccc(NC(=O)C3CCCCC3)c2O[C@H]1CN(C)CC1CC1 | i
Cc1ccc(N(CC(N)=O)S(=O)(=O)c2ccccc2)cc1 | i
C[C@H](NC(=O)C[C@@H]1C[C@H]2c3cc(NS(C)(=O)=O)ccc3O[C@H]2[C@H](CO)O1)c1ccccc1 | i
CCOc1ccc(NC(=O)Cn2nc([N+](=O)[O-])cc2C)cc1 | i
COc1cccc(C#Cc2ccc3c(c2)O[C@H](CN(C)C(=O)CN2CCOCC2)[C@@H](C)CN([C@@H](C)CO)S3(=O)=O)c1 | i
O=C(Nc1sc2c(c1C(=O)NCC1CCCO1)CCCC2)c1ccc(Cl)cc1Cl (stereo not given) | i
Cc1cc(Cl)ccc1NC(=O)CCCN1C(=O)c2ccccc2C1=O | i
Cc1nnsc1C(=O)NCc1c(Cl)cccc1Sc1ccc(Cl)cc1 | i
COC(=O)c1c(C)nc(C)c(C(=O)OC)c1-c1csc(S(=O)(=O)N2CCSCC2)c1 | i
Cc1cccc(NC(=O)CSc2nc(N)c(C#N)c(-c3ccc(F)cc3)c2C#N)c1 | i
O=C(O)c1oc2ccc(Br)cc2c1-n1cccc1 | i
O=C(Nc1ccc(I)cc1C(=O)NCC1CCCO1)c1cccnc1 (stereo not given) | i

# 3 compounds from above, arranged by molar mass, smallest number first:
compound | ID4 binder
O=C(Nc1sc2c(c1C(=O)NCC1CCCO1)CCCC2)c1ccc(Cl)cc1Cl (stereo not given) | i
COC(=O)c1c(C)nc(C)c(C(=O)OC)c1-c1csc(S(=O)(=O)N2CCSCC2)c1 | i
COc1cccc(C#Cc2ccc3c(c2)O[C@H](CN(C)C(=O)CN2CCOCC2)[C@@H](C)CN([C@@H](C)CO)S3(=O)=O)c1 | i

# The list goes on.
compound | ID4 binder
CN(C)CC(=O)N1[C@H](CO)[C@H](c2ccc(C#CC3CCCC3)cc2)[C@@H]1C#N | i
Cc1cc(OCC(=O)Nc2cc(-c3nc4ccccc4o3)ccc2C)ccc1Cl | i
Cc1ccc(C(=O)Nc2ccccc2C(=O)N2CCN(c3ccccc3)CC2)cc1S(=O)(=O)N1CCCCC1 | i
Cc1ccc(S(=O)(=O)N[C@H]2CC[C@@H](CC(=O)NCCc3ccncc3)O[C@H]2CO)cc1 | i
C[C@H](CO)N1C[C@H](C)[C@@H](CN(C)CC2CCCC2)Oc2ncc(C#CCc3ccccc3)cc2C1=O | i
COC(=O)C1=C(C)NC(C)=C(C(=O)OCCN(C)Cc2ccccc2)C1c1cccc([N+](=O)[O-])c1 (stereo not given) | i
CN1C(=O)/C(=C/C=C2\SCCN2C)SC1=S | i
CC(C)(C)c1n[nH]c(C(C)(C)C)c1Cc1c(F)cccc1Cl | i
CCc1cccc(C)c1NC(=O)CNS(=O)(=O)c1ccc(Cl)cc1 | i
Cc1ccc2c(c1)-c1c(ssc1=S)C(C)(C)N2C(=O)c1ccncc1 | i

# Following part
compound | ID4 binder
CS(=O)(=O)Nc1ccc2c(c1)[C@@H]1C[C@@H](CC(=O)NCC3CC3)O[C@@H](CO)[C@@H]1O2 | i
CCOC(=O)c1ccc(NC(=O)CSc2nc3sc4c(c3c(=O)n2C)CCCC4)cc1 | i
C[C@@H](NC(=O)C[C@H]1CC[C@@H](NC(=O)C2CC2)[C@@H](CO)O1)c1ccccc1 | i
CCOC(=O)c1ccc(NC(=O)CC2NCCNC2=O)cc1 (stereo not given) | i
C[C@H]1CN([C@@H](C)CO)C(=O)Cc2cc(NC(=O)CCC(F)(F)F)ccc2O[C@@H]1CN(C)CC1CC1 | i
CCOc1ccc(NC(=O)C(C)n2nc(C)c([N+](=O)[O-])c2C)cc1 (stereo not given) | i
COc1ccc(C2OC(c3ccc(S(=O)(=O)N4CCCCC4)cc3)=NN2C(C)=O)cc1 (stereo not given) | i
O=C(C[C@H]1C[C@H]2c3cc(NC(=O)Cc4ccncc4)ccc3O[C@H]2[C@H](CO)O1)NCc1ccc(-c2ccccc2)cc1 | i
Cc1ccc(S(=O)(=O)N(C)CC(=O)Nc2ccncc2)cc1 | i
CCCN(C)C[C@H]1Oc2cc(C#CC3CCCC3)ccc2S(=O)(=O)N([C@H](C)CO)C[C@@H]1C | i

# (listing goes on)
compound | ID4 binder
C[C@H](CO)N1C[C@H](C)[C@@H](CN(C)C(=O)C2CC2)Oc2ncc(C#Cc3ccccc3)cc2C1=O | i
COC(=O)C[C@@H]1C[C@@H]2c3cc(N(C)C)ccc3O[C@@H]2[C@@H](CO)O1 | i
CS(=O)(=O)N(CC(=O)Nc1cccc(C(F)(F)F)c1)c1ccc(Br)cc1 | i
C[C@H]1CN([C@@H](C)CO)C(=O)c2cc(C#Cc3cccc(F)c3)cnc2O[C@H]1CN(C)CC1CCCC1 | i
COc1cccc(S(=O)(=O)NCc2ccc(C(=O)Nc3ccc(Cl)cc3)cc2)c1 | i
CCOC(=O)c1ccc(NC(=O)CC2NC3CCCCC3NC2=O)cc1 (stereo not given) | i
CCCC#Cc1ccc2c(c1)O[C@H](CN(C)C(=O)c1cnccn1)[C@H](C)CN([C@@H](C)CO)S2(=O)=O | i
Cc1ccc(NC(=O)Cn2ccc([N+](=O)[O-])n2)cc1C | i
O=C(c1ccc(F)cc1)n1nc(-c2ccc(Cl)cc2)nc1NCc1ccco1 | i
C[C@@H]1CN([C@@H](C)CO)S(=O)(=O)c2ccc(C#CCN(C)C)cc2O[C@H]1CN(C)Cc1ccccc1 | i

# The list continues:
compound | ID4 binder
COC(=O)c1sccc1NC(=O)CSc1nnnn1-c1ccccc1C | i
CCCc1nnc2n1N=C(c1ccc(Br)cc1)CS2 | i
C/C=C/c1cnc2c(c1)C(=O)N([C@@H](C)CO)C[C@H](C)[C@@H](CN(C)C(=O)c1cccc(F)c1)O2 | i
O=C(CC1Nc2cccc3cccc(c23)NC1=O)Nc1cccc([N+](=O)[O-])c1 (stereo not given) | i
N#C[C@H]1[C@@H](c2ccc(-c3ccccc3F)cc2)[C@@H](CO)N1C(=O)C1CCC1 | i
CN(CC(=O)Nc1ccc(Br)cc1)S(=O)(=O)c1ccc2ccccc2c1 | i
Cc1cc(NS(=O)(=O)c2ccc(Nc3nc(-c4ccc(O)cc4)cs3)cc2)no1 | i
NC(=O)CSc1nc2c(c(=O)n1Cc1ccccc1)C1(CCCCC1)Cc1ccccc1-2 | i
CCc1ccccc1NC(=O)CN(C)S(=O)(=O)c1c(C)cc(C)cc1C | i
COc1cc(OC)c(NC(=O)CSc2nc3ccc([N+](=O)[O-])cc3s2)cc1Cl | i

# (cont.)
compound | ID4 binder
Cc1nn(Cc2c(Cl)cccc2Cl)c(C)c1NC(=O)c1noc2c1CC(C(C)(C)C)CC2 (stereo not given) | i
O=C(O)C[C@@H]1CC[C@H](NC(=O)c2ccccc2F)[C@@H](CO)O1 | i
COc1cc2c(cc1NC(=O)C1CCC(=O)N1S(=O)(=O)c1ccc(C)cc1)oc1ccccc12 (stereo not given) | i
CCn1c(SCC(N)=O)nnc1-c1ccc(Cl)cc1 | i
O=C(COc1ccc([N+](=O)[O-])cc1)Nc1ccc2oc(-c3ccccc3Cl)nc2c1 | i
C[C@H](CO)N1C[C@H](C)[C@@H](CN(C)CC2CC2)Oc2cc(-c3ccccc3)ccc2S1(=O)=O | i
Cc1c(NC(=O)COc2ccc(I)cc2)cccc1C(=O)O | i
C[C@H](CO)N1C[C@H](C)[C@H](CN(C)C)Oc2cc(C#CCC3CCCC3)ccc2S1(=O)=O | i
Cc1ccc2oc(C(=O)Nc3nnc(SCc4ccccc4)s3)c(C)c2c1 | i
COc1c2c(c(C)c3c1C(=O)OC3)OC1(C)CC(O)C3(O)C(C)(C)OC(=O)CCC3(C)C1C2 (stereo not given) | i

# Five entries picked at random from the list so far:
compound | ID4 binder
Cc1ccc(S(=O)(=O)N(C)CC(=O)Nc2ccncc2)cc1 | i
CCCC#Cc1cnc2c(c1)C(=O)N([C@@H](C)CO)C[C@@H](C)[C@@H](CN(C)C(=O)C1CCC1)O2 | i
C[C@H]1CN([C@@H](C)CO)C(=O)Cc2cc(NC(=O)CCC(F)(F)F)ccc2O[C@@H]1CN(C)CC1CC1 | i
O=C(COc1ccc([N+](=O)[O-])cc1)Nc1ccc2oc(-c3ccccc3Cl)nc2c1 | i
Cc1ccc(N(CC(N)=O)S(=O)(=O)c2ccccc2)cc1 | i

# Next section.
compound | ID4 binder
C[C@H]1CN([C@@H](C)CO)C(=O)c2cc(/C=C/c3ccccc3)cnc2O[C@H]1CN(C)Cc1cccnc1 | i
C[C@@H]1CN([C@H](C)CO)C(=O)c2ccccc2-c2ccccc2CO[C@H]1CN(C)C(=O)[C@@H]1CCCN1C | i
O=C(C[C@@H]1CC[C@@H](NC(=O)C2CCC2)[C@H](CO)O1)NCc1ccccc1Cl | i
CCC(=O)N(C)C[C@@H]1Oc2ncc(-c3ccccc3F)cc2C(=O)N([C@@H](C)CO)C[C@@H]1C | i
Cc1cc(=O)c2c(O)c3c(O)cc(O)c4c5c(O)cc(O)c6c(O)c7c(=O)cc(C)c8c1c2c(c34)c(c65)c78 | i
C[C@@H]1CN([C@H](C)CO)S(=O)(=O)c2ccc(Br)cc2O[C@H]1CN(C)Cc1ccccc1 | i
CCOc1ccc(-n2c(SCc3cccc([N+](=O)[O-])c3)nnc2-c2ccncc2)cc1 | i
CCn1c(SCC(=O)Nc2ccccc2C(F)(F)F)nnc1-c1cccc(C)c1 | i

# Compound activity (PubChem)
